Screening data: PubChem BioAssay, several laboratories
E coli growth: E. coli growth inhibition, primary screen, OD600; Escherichia coli growth, 23 h; hits give low values; OD600 absorbance (concentration not given with the values); 0.21% of 330,000 active; AID 1053175, 2014;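 active means OD600 absorbance below the run mean of sample wells minus 3.6 SD, in any replicate, cut at about 0.56 in these data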;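 further: stock transfer was 300 nL into about 60 µL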
HNF4A DNA FP: change in binding of human HNF4A to DNA, primary screen, biochemical, fluorescence polarization, FITC-DNA; Hepatocyte nuclear factor 4-alpha (Homo sapiens), P41235; 1 h; activity change, % at 10 µM; 0.3% of 360,000 active; AID 1224865, 2016; in the data active means activity change above about 30%, passing the limit was not always enough;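 further: controls were the assay level and a saturating level of protein; the project sought stronger binding though the title names inhibitors; some compounds called inactive have numbers as strong as hits; positive values seem to mean higher polarization but the record does not say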
Target sequence (P41235 whole entry, looked up): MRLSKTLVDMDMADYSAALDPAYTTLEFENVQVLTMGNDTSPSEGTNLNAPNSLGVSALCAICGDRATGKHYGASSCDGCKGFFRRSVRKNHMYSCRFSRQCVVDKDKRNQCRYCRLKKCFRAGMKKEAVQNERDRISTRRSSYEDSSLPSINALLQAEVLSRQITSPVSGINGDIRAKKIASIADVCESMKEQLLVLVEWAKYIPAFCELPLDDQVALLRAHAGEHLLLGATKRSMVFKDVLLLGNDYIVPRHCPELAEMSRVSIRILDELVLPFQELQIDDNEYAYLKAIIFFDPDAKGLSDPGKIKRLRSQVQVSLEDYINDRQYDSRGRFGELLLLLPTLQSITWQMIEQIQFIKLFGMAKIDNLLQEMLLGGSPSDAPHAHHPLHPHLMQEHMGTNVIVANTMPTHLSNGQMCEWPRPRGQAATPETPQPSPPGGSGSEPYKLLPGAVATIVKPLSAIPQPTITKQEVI
UCH37 inh: inhibitors of human UCH37 deubiquitinase, primary screen, biochemical, Ub-AMC cleavage, fluorescence; Ubiquitin carboxyl-terminal hydrolase isozyme L5 (Homo sapiens), Q9Y5K5; inhibition, % (test concentration not listed); 0.33% of 330,000 active; purified proteasome/UCH37; AID 588478, 2011;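 active means mean of two replicates above 20%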;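 further: 0% = compound-free wells with enzyme and 100% = wells lacking proteasome; stock transfer was 100 nL into about 20 µL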
Target sequence (Q9Y5K5 whole entry, looked up): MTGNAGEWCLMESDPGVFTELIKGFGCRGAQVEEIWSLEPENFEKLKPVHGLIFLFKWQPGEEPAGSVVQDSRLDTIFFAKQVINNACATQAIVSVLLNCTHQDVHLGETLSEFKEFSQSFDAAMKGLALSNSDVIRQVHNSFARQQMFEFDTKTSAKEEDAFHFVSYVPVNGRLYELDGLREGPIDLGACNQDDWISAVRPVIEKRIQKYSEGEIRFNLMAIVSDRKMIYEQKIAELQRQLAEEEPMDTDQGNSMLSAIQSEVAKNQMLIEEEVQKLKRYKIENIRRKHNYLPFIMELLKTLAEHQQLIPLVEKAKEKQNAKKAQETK
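Material: Human UCH37 enzyme supplied as purified proteasome complex | Schedule: 30 min compound-proteasome preincubation then 25 min substrate reaction, room temperature | Detection: AMC fluorescence from Ub-AMC cleavage, excitation 355 nm, emission 460 nm | Benchmarks: Wells without proteasome as full block, compound-free enzyme plus substrate as uninhibited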
Beta2AR agonist: beta2AR agonists driving receptor internalization, primary screen, cell-based, FAP fluorogen, flow cytometry. response, % (no concentration beside the values). Beta-2 adrenergic receptor (Homo sapiens), P07550. 0.43% of 340,000 active. Am2.2-beta2AR cells; reference of the scale not given here. AID 504454, 2011;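 active means response above a set limit, near 3 SD of response in nonfluorescent compounds, cut at about 42% in these data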;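 further: stock transfer was 100 nL into about 11 µL; a reference agonist was the positive control; negative values mostly stem from fluorescent compounds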
Vif TR-FRET: inhibitors of Vif binding to APOBEC3G peptide, primary screen, biochemical, TR-FRET, GST-Vif 1-94, biotin-A3G peptide, dose response retest (AID 1117319); Virion infectivity factor (Human immunodeficiency virus type 1 group M subtype B (isolate …; TR-FRET GST-Vif / biotin-A3G peptide binding; higher % means a stronger effect; test concentration not given here; strong numbers were not always called active; inhibition, %; hits with a dose series show IC50 in µM; 0.57% of 260,000 active;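 active means above the screen mean plus three standard deviations and confirmed in dose response; inconclusive means results disagree or hit not tested in dose response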;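 further: Vif residues 1-94 fused to GST binding biotinylated APOBEC3G peptide 110-148; 0% = full assay without inhibitor and 100% = GST in place of GST-Vif; retest series ran down from 100 µM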
LANA-H2B inh: blockers of LANA interaction with H2A/H2B – biochemical, FP readout, HTS, primary screen. Protein LANA1 (Human herpesvirus 8 type P (isolate GK18)), Q9QR71. cell-free LANA-H2A/H2B peptide, fluorescence polarization. inhibition, % (concentration not given with the values). 0.6% of 320,000 active; in the data active means inhibition mostly above about 10%, no sharp cut-off; inactive means mostly below about 6.7%;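 further: stock transfer was 7.5 nL into about 10 µL; 0% = median of vehicle wells and 100% = median of positive control wells; one replicate is shown; the record names a cut of 25% in any replicate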
A1 inh: caspase 3/7 activation in MEF A1-2A-BIM cells, primary screen, A1 inhibitor project, cell-based, luminescence, HTS; Caspase-Glo 3/7 luminescence, 3 h; percent of clofoctol response, vehicle zero; caspase activation, % (concentration not given with the values); 0.066% of 330,000 active; AID 2462, 2010;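 active means over half of replicate activation scores above 10%, or exactly half above 10 with the replicate mean above 10; inconclusive means replicate mean below 10 yet half the replicates above 10; inactive means over half of replicates below 10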;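 further: wells of about 30 µL received 50 nL stock; many hits fall short of the cut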
Numbers without * were called inactive; ? = inconclusive; · = not tested or not shown.

Structure | E coli growth | HNF4A DNA FP | UCH37 inh | Beta2AR agonist | Vif TR-FRET | LANA-H2B inh | A1 inh
O=C(O)COc1ccc2c3c(c(=O)oc2c1)CCC3 | 0.7 | -2.2 | -21 | 0 | 0% | -7.0 | 0.2
O=c1cc(N2CCN(c3ccc(F)cc3)CC2)[nH]c(=O)n1Cc1ccc(F)cc1 | 0.79 | -1.3 | 3.0 | -4 | -4% | -3.4 | 1.0
O=C(OCN1C(=O)c2ccccc2C1=O)c1cccnc1SC(F)F | 0.69 | -0.5 | 2.7 | 0 | · | 13 | 0.2
Cc1cc(C)c(S(=O)(=O)Nc2cccc(-n3cnnn3)c2)c(C)c1 | 0.68 | -4.2 | 1.6 | -2 | · | 5.6 | 0.2
Cc1cc(C)c2c(NC(=S)Nc3ccccc3)n[nH]c2n1 | 0.72 | 2.4 | 1.9 | -6 | 5% | -10 | -0.4
CNC(=O)CSc1nnc(-c2cccnc2)n1CCc1ccccc1 | · | 5.0 | · | -2 | ? | 1.2 | -0.4
CCOC(=O)c1c(C)[nH]c(C)c1S(=O)(=O)N1CCN(c2ccc(F)cc2)CC1 | 0.71 | -3.7 | 3.7 | -10 | · | 8.5 | -1.1
CCc1cc2c(=O)c(-c3ccc4c(c3)OCCO4)c(C)oc2cc1OS(C)(=O)=O | 0.74 | -1.3 | 1.2 | -8 | · | -5.7 | -0.9
O=C(CSCc1ccccc1Cl)NNC(=S)Nc1ccccc1 | 0.69 | 0.7 | 3.5 | -2 | 10% | -1.7 | 0.1
O=C(NCc1nnc2c(C(F)(F)F)cc(Cl)cn12)c1ccco1 | 0.66 | 3.9 | 0.4 | -14 | · | 10 | 0.0
CCCCn1c(=O)c(CCC(=O)O)nc2ccccc21 | 0.68 | -1.7 | -36 | -3 | · | 15 | -0.9
CS(=O)(=O)c1ccc(NCCN2CCOCC2)c([N+](=O)[O-])c1 | 0.66 | -1.8 | 8.4 | -4 | · | 5.4 | 0.6
CCc1ccc2nc(N)sc2c1 | 0.71 | 1.5 | -2.0 | -6 | -3% | -5.8 | -0.1
COc1cc2[nH]c(=O)n(Cc3ccc(C(=O)NC4CCCC4)cc3)c(=O)c2cc1OC | 0.72 | 2.4 | -2.4 | 6 | -8% | 7.5 | 0.5
C=CCOc1cccc(CNCc2cccnc2)c1 | 0.65 | -1.7 | 1.0 | -3 | · | 1.6 | -0.3
CC(C)(C)c1ccc(S(=O)(=O)N2CCC(N3CCCCC3)CC2)cc1 | 0.67 | 0.6 | 1.3 | 5 | · | 1.7 | 0.4
CCc1sc(C(=O)Nc2ncccc2C)cc1C | 0.64 | 2.7 | 0.4 | 5 | · | -2.7 | 0.9
CCCCCCSc1ccc(-c2nc3ccc(Cl)cn3c2NCc2ccccc2)cc1 | 0.75 | 2.3 | -119 | -6 | · | 1.6 | -2.3
O=C(NCc1nnc2c(C(F)(F)F)cc(Cl)cn12)c1ccc(Br)o1 | 0.66 | -0.6 | -0.9 | -12 | -1% | -3.0 | -1.3
O=C1C=C(O)CC(c2ccco2)C1 (stereo unspecified) | 0.72 | -11 | -2.1 | 10 | ? | -13 | 0.8
COc1ccc(NC(=O)C(Cl)=C(Cl)Cl)cn1 | 0.69 | -4.8 | 3.8 | 0 | · | · | ·
CCCOc1ccc(N2C(=O)CC(N3CCCC(C(=O)N4CCCC4)C3)C2=O)cc1 (stereo unspecified) | 0.67 | 1.7 | -1.6 | 0 | 26% | 6.8 | 0.5
Nc1nc(CSc2nc3ccccc3[nH]2)cs1 | 0.7 | 6.2 | 2.1 | 1 | 12% | 2.6 | -0.3
CCOC(=O)C1(c2csc(N)n2)COC(=O)C1 (stereo unspecified) | 0.71 | 3.7 | 3.2 | 5 | ? | 6.0 | -0.3
Cc1ccc(S(=O)(=O)n2[nH]c(=O)cc2NC(=O)c2cccs2)cc1 | 0.66 | · | 1.1 | · | 2% | 0.9 | 0.8
S=c1[nH]nc(-c2ccco2)n1/N=C/c1cccs1 | · | 0.8 | · | -3 | · | -2.2 | -0.2
NC(=O)c1ccc(-n2nnnc2SCC(=O)Nc2ccccc2F)cc1 | 0.72 | -0.5 | 0.7 | -6 | -6% | 4.7 | 0.1
COc1ccc(/C=N\NC(=O)c2nn(C)cc2Cl)cc1CN1CCOCC1 | · | -2.0 | · | 0 | 8% | 4.0 | 1.4
CCOC(=O)Nc1ccccc1C(=O)N1CCOCC1 | 0.73 | 2.1 | 1.4 | 0 | 1% | -4.4 | 0.5
CCCCCC(C)NC(=S)NC(=O)c1cc(S(=O)(=O)N2CCOCC2)ccc1C (stereo unspecified) | 0.72 | 4.3 | 4.6 | 9 | · | -1.5 | 0.5

The results go on.
Structure | E coli growth | HNF4A DNA FP | UCH37 inh | Beta2AR agonist | Vif TR-FRET | LANA-H2B inh | A1 inh
Cc1ccc2[nH]cc(CCNS(=O)(=O)c3ccc(F)cc3)c2c1 | 0.67 | -4.0 | 6.1 | 4 | · | -2.5 | 0.6
CCC1(c2ccc(F)cc2)NC(=O)N(CC(=O)Nc2cccc(S(=O)(=O)N3CCCC3)c2)C1=O (stereo unspecified) | 0.68 | 1.4 | 3.5 | 4 | · | · | ·
COc1cc(NC(=O)CCCNC(=O)c2ccc(Cl)cc2)cc(OC)c1 | 0.67 | -4.2 | 2.7 | -1 | -7% | -1.8 | 0.4
CCOc1ccccc1-n1c(SCC(=O)N2CCOCC2)nnc1-c1ccccn1 | 0.77 | -5.4 | 1.3 | 7 | -2% | 5.5 | -0.5
CCOc1cc2c(Cl)ncnc2c(OCC)c1OCC | 0.66 | 1.9 | 2.5 | 5 | · | 0.7 | 0.7
CC(=O)c1cccc(NC(=O)c2ccccc2OCc2ccc(F)cc2)c1 | 0.69 | 2.0 | 2.6 | -19 | · | -1.9 | 0.6
CC(C)CCOc1cccc(OCC(=O)NC2CCS(=O)(=O)C2)c1 (stereo unspecified) | 0.67 | -1.5 | 3.8 | -8 | 5% | -2.3 | 0.4
COc1ccccc1NC(=O)C(=O)NCCCN1CCCC1=O | 0.65 | 1.0 | 4.0 | 5 | -2% | -7.2 | -0.3
O=C1OCC(c2ccc(Cl)s2)=C1c1ccccc1[N+](=O)[O-] | 0.67 | -1.7 | 3.8 | -3 | -6% | -1.4 | 0.1
O=C(Cn1nc(-c2ccccc2)nc1-c1ccccc1)N1CCOCC1 | 0.69 | -0.3 | 6.0 | 4 | -1% | -0.6 | 1.0
CCOC(=O)c1ccc2c(c1)nc(SC/C(O)=C(\C#N)c1nc3ccccc3[nH]1)n2CC | · | 9.1 | · | -9 | 12% | -5.8 | 1.2
O=[N+]([O-])c1ccc(S(=O)(=O)NCCc2cn3ccccc3n2)cc1 | 0.7 | 6.2 | 2.5 | 10 | 0% | -4.2 | -0.1
COCCCN1C(=O)c2ccc(C(=O)O)cc2C1=O | 0.71 | -1.5 | 1.4 | 15 | 10% | · | ·
Cc1ccccc1/C=N/n1c(-c2cc(-c3ccccc3)n[nH]2)n[nH]c1=S | · | -1.2 | · | 2 | 9% | -0.5 | 0.0
CCOc1ccc(CC(C(N)=O)C(N)=O)cc1CN(C)C | 0.75 | -2.9 | -0.6 | 1 | 22% | -2.2 | -0.2
CS(=O)(=O)N1CCN(C(=S)NCc2ccc(F)cc2)CC1 | 0.69 | 2.4 | -2.1 | 8 | 7% | -3.1 | 0.8
O=C(O)c1ccc(/C=N/Nc2ccc(F)cc2F)cc1 | · | 2.5 | · | 2 | 1% | 4.1 | -8.1
C=CCN=C(NC#N)SCC(=O)NC(C)(C)C | 0.77 | 0.3 | -0.1 | -6 | 5% | 3.4 | -0.5
CCCCCc1n[nH]c2c1CCCC2 | 0.63 | -1.5 | -2.1 | 3 | -12% | -0.5 | 0.9
COc1ccc(NC(=O)c2cc([N+](=O)[O-])ccc2NC(=O)CNC2CCCCC2C)c(OC)c1 (stereo unspecified) | 0.67 | -4.8 | 3.9 | 7 | · | 2.0 | 0.4
COc1ccc(OC)c(-n2c(-c3cccc(O)c3)n[nH]c2=S)c1 | 0.67 | 1.6 | -5.2 | -1 | -1% | 0.7 | 0.1
CN(C)C(=O)N1CCCC(C(=O)NCc2ccccc2)C1 (stereo unspecified) | 0.71 | 4.0 | 0.5 | 0 | -3% | -1.3 | 0.5
Cc1c(NC(=O)C(C)OC(=O)c2ccc(Br)o2)c(=O)n(-c2ccccc2)n1C (stereo unspecified) | 0.68 | -1.0 | 0.9 | -9 | -1% | -2.7 | -0.1
Cc1cc(C(=O)NCCCN2CC(C)CC(C)C2)n(-c2ccccc2)n1 (stereo unspecified) | 0.73 | -1.5 | 5.6 | 5 | -2% | -6.0 | -0.9
CCOC(=O)CCCc1c[nH]c2ccccc12 | 0.6 | 0.7 | -1.7 | 1 | 6% | 7.8 | -0.6
CCCNC(=O)COC(=O)c1c2c(nc3ccccc13)CCC2 | 0.72 | -2.6 | -12 | -13 | · | 4.1 | 0.0
CSc1ccc(/C=N/NC(=O)CN2CCN(Cc3ccccc3Cl)CC2)cc1 | · | 3.2 | · | -1 | 6% | -1.7 | 0.1
Cn1cnnc1SCC(=O)NCCC(c1ccccc1)c1ccccc1 | · | -0.4 | · | -16 | -2% | -8.3 | 0.0
Cc1cc(C)cc(N)c1 | 0.67 | 3.9 | 0.0 | -4 | · | 4.4 | 0.2
O=C(CCn1c(=S)oc2ccccc21)Nc1ccc2c(c1)OCCO2 | 0.77 | 4.0 | 5.3 | -9 | 81% | · | -0.5

Next section:
Structure | E coli growth | HNF4A DNA FP | UCH37 inh | Beta2AR agonist | Vif TR-FRET | LANA-H2B inh | A1 inh
Cc1oc(/N=C/c2ccc(Cl)cc2Cl)c(C#N)c1C | · | -1.6 | · | 2 | 9% | · | ·
Cc1nc(N2CCc3ccccc3C2)[nH]c(=O)c1Cc1ccccc1 | · | 1.6 | · | -6 | · | 11* | -0.9
O=C1C(C=NCc2cccnc2)=C(O)c2ccccc21 | 0.7 | 0.8 | 9.4 | -2 | -1% | · | ·
COc1ccc(C(=O)NNC(=O)C(=O)Nc2cccc3ccccc23)cc1 | 0.65 | -0.4 | 3.5 | -4 | · | 0.5 | -0.2
COC(=O)Cc1c(C)nc2nc(Cc3ccccc3)[nH]n2c1=O | 0.68 | -2.6 | 3.2 | -4 | ? | -1.8 | 1.3
COc1cccc(CN(CC(=O)NCc2ccccc2)S(=O)(=O)CCl)c1 | 0.67 | -0.5 | -0.4 | -4 | · | -2.6 | -1.2
COc1cccc(C(=O)N(Cc2ccc3c(c2)OCO3)Cc2nc3ccccc3c(=O)[nH]2)c1 | 0.7 | 0.6 | -0.2 | -1 | 12% | -0.7 | 1.1
Cc1cc(C)c(C)c(SCC(=O)Nc2oc(C)c3c(C)n[nH]c(=O)c23)c1C | 0.65 | -1.0 | -2.3 | -7 | 0% | -7.6 | 0.1
N#Cc1ccccc1NC1=CC(=O)CCC1 | 0.73 | -7.1 | -0.5 | -3 | 12% | -4.6 | 0.1
CCOc1ccc(S(=O)(=O)Nc2cccc(C(=O)NCC3CCCO3)c2)cc1 (stereo unspecified) | 0.68 | 5.8 | -0.7 | -5 | -10% | 2.5 | 0.5
